From PubChem
StopGo FLuc: lowers the firefly signal of an FMDV 2A StopGo reporter; HEK cells with a luciferase reporter of 2A StopGo recoding; AID 1745856; 120,000 compounds, 0.23% hits; Potency, µM (highest dose often 57.5 µM), for the others: at the top dose signal change, negative = less light; active = well fitted falling curve with a large enough effect; inconclusive = small, poorly fitted or top-dose-only effect; inactive = no such curve, though single readings can be large or run the other way; further: nearly all actives have a fitted effect of over 60% in size; overnight with compound
StopGo RLuc: lowers the Renilla signal of an FMDV 2A StopGo reporter; HEK cells with a luciferase reporter of 2A StopGo recoding; Potency, µM (doses to about 57.5 µM), for inactives: at the top dose signal change, negative = less light; 120,000 compounds, 0.32% hits; AID 1745857; active means well fitted falling curve with a large enough effect; inconclusive means small, poorly fitted or top-dose-only effect; inactive means no such curve, though single readings can be large or run the other way; further: nearly all actives have a fitted effect of over 55% in size; overnight with compound
An asterisk follows results filed as active; ? = inconclusive; [ ] = dose if it differs, or a comment. On the % scale 0 is the no-effect control and ±100 the full control effect; potency means the concentration at half of the fitted maximal effect.

| # | molecule | StopGo FLuc | StopGo RLuc |
| --- | --- | --- | --- |
| 1 | Cc1ccc(NC(=O)Cn2nc3ccc(SC(C)C)nn3c2=O)c(Cl)c1 | 7.1% | -2.6% |
| 2 | COc1ccc(/C=C/C(=O)c2ccc(OC)cc2OC)cc1 | 16.8% | 33.3%[activator] |
| 3 | O=C(COc1ccccc1-c1nc(-c2ccccc2)no1)Nc1cccc([N+](=O)[O-])c1 | -13.1% | -12.8% |
| 4 | COc1ccc(-c2cn3c(n2)sc2cc(C(=O)Nc4cccc(OC)c4)ccc23)cc1 | 24.9% | -1.2% |
| 5 | Cc1ccc(NC(=O)N2CCN(C(=O)c3nonc3N)CC2)cc1F | 48.4%[activator] | 7.0% |
| 6 | CC(Cc1ccc(Cl)cc1)NC(=O)c1ccc[n+]([O-])c1 (stereo not given) | 10.8% | 10.2% |
| 7 | O=C(CC1CCCC1)Nc1cccc2ncccc12 | 8.3% | 9.3% |
| 8 | Cc1ccc(N2CC(NC(=O)c3ccc(Br)o3)CC2=O)cc1C (stereo not given) | -13.7% | -4.1% |
| 9 | CCOC(=O)c1cccc(NC(=O)CCn2c(=O)oc3ccccc32)c1 | -5.9% | 16.3% |
| 10 | O=C(Nc1ccccc1)c1cccc(OCc2ccccc2)c1 | 147.4%[activator] | 13.3% |
| 11 | O=C(NCCCNC(=O)C1CCCCC1)C1CCCCC1 | -5.4% | 5.7% |
| 12 | Cn1c(SCCC(=O)Nc2sccc2C#N)nnc1-c1ccccc1F | 4.8% | 5.5% |
| 13 | COCc1nnc(NC(=O)CCn2ccc3ccc(F)cc32)s1 | -14.2% | -15.2% |
| 14 | COc1cc2c(cc1NC(=O)COc1cc(C)cc(C)c1)oc1ccccc12 | -5.8% | -5.5% |
| 15 | CSCc1ccc(C(=O)Nc2ccc3c(c2)NC(=O)CS3)cc1 | 50.9%[activator] | -28.0% |
| 16 | O=C(Nc1ccccc1)Nc1nnc(-c2ccc(Cl)c(Cl)c2)s1 | -1.8% | -0.4% |
| 17 | Cc1ccc(C(=O)/C=C/c2ccc(-c3ccccc3Br)o2)cc1 | 3.7% | 31.2%[activator] |
| 18 | CC(C)COc1ccc(C(=O)N2CCCCC2CCN2CCOCC2)cc1 (stereo not given) | -14.7% | -1.3% |
| 19 | COc1cc(OC)c(NC(=O)C2CCN(S(=O)(=O)c3c(C)noc3/C=C/c3c(C)cc(C)cc3C)CC2)cc1Cl | -16.8% | 0.6% |
| 20 | COc1ccc(NC(=O)Cc2c(C)c3c(O)cc(C)cc3oc2=O)cc1OC | -4.8% | -11.6% |
| 21 | CC1=C(C)CC(C(=O)N2CCN(CCc3ccccc3)CC2)C(C(=O)O)C1 (stereo not given) | -1.7% | 5.8% |
| 22 | O=C(/C=C/c1ccc(COc2ccc(F)cc2F)o1)c1cccc([N+](=O)[O-])c1 | 0.0% | -4.4% |
| 23 | CC1=C(C(=O)O)N2C(=O)[C@@H](NC(=O)[C@H](N)C3=CCC=CC3)[C@H]2SC1 | -6.9% | -9.3% |
| 24 | O=C(Cc1c(Cl)cccc1Cl)OCc1cccc([N+](=O)[O-])c1 | 18.3% | 4.1% |
| 25 | CN(Cc1ccc(F)cc1F)C(=O)COc1ccc2ccc(=O)oc2c1 | 15.0% | 8.0% |
| 26 | COc1cccc(OC)c1C(=O)Nc1ccc2c(c1)CCCN2S(=O)(=O)c1ccc(C)cc1 | -6.6% | 11.6% |
| 27 | COC(=O)[C@H](CC(C)C)NC(=O)Nc1ccc2c(c1)OCCO2 | 17.8% | -12.0% |
| 28 | Cc1cccc(NC(=S)N/N=C/C2=CCC3CC2C3(C)C)c1C (stereo not given) | 8.3% | 36.4%[activator] |
| 29 | Cc1ccc(-c2nc(CSc3nc(C)c(CCO)c(=O)[nH]3)c(C)o2)cc1 | 14.8% | -6.9% |
| 30 | CCCN1Cc2cccc(C(=O)Nc3ccccc3F)c2C1=O | 15.9% | 25.4% |
| 31 | Cc1ccc(C(C)C)c(OCCN)c1 | ? | -5.0% |
| 32 | Cn1c(=O)c2c(nc(CN(Cc3ccccc3)Cc3ccccc3)n2CC(N)=O)n(C)c1=O | 11.2% | 175.3%[activator] |
| 33 | Cc1cc(C)cc(CCCCCCCCCCCC(=O)O)c1 | -11.1% | -5.6% |
| 34 | COc1ccc(NC(=O)c2cc(=O)c3ccccc3o2)cc1Cl | 0.0% | 5.4% |
| 35 | CC(C)Oc1ccc(C(CC(=O)O)NC(=O)c2ccc(Cl)cc2)cc1 (stereo not given) | 15.0% | -3.8% |
| 36 | Cc1ccc(N2CC(c3nnc(Cc4ccccc4Cl)o3)CC2=O)cc1 (stereo not given) | -15.0% | 17.5% |
| 37 | CCOc1ccccc1NC(=O)C1CCCN(c2ncnc3onc(-c4ccc(F)cc4)c23)C1 (stereo not given) | -5.1% | -8.6% |
| 38 | CN(C)C(CNC(=O)c1cccs1)C1CC1 (stereo not given) | 6.5% | 1.1% |
| 39 | COc1cc(NC(=O)NCc2nnnn2-c2ccc(C)cc2)cc(OC)c1OC | 0.0% | 0.0% |
| 40 | O=C1c2oc3ccccc3c(=O)c2C(c2ccc(O)cc2)N1Cc1ccc2c(c1)OCO2 (stereo not given) | -6.0% | ? |
| 41 | Cc1ccc(CNC(=O)NCC(=O)Nc2cccc(C(F)(F)F)c2)cc1 | 0.0% | 29.3% |
| 42 | CCCS(=O)(=O)NCCc1ccc(C(=O)O)cc1 | 7.4% | -9.1% |
| 43 | COc1ccccc1NC(=O)C1CCN(c2cnccn2)CC1 | -6.5% | -10.0% |
| 44 | CC(=O)Nc1ccc(NC(=O)c2ccc(COc3ccc(Cl)cc3Cl)o2)cc1 | -11.1% | -4.1% |
| 45 | CCOC(=O)N1CCN(C(=O)c2ccc3c(c2)N(Cc2cc(C)ccc2C)C(=O)c2ccccc2S3=O)CC1 (stereo not given) | ? | ? |
| 46 | O=C(CC1Sc2ccc(C(F)(F)F)cc2NC1=O)Nc1ccc(OC(F)F)cc1 (stereo not given) | 20.9% | 6.5% |
| 47 | CCC1CCc2c(sc(NC(=O)c3c(-c4ccccc4)noc3C)c2C(=O)OC)C1 (stereo not given) | -2.6% | -18.1% |
| 48 | CCOC(=O)c1cc(NC(=O)c2ccc(C)cc2)c(=O)n2c1oc1ccc(Cl)cc12 | -13.4% | -12.4% |
| 49 | CCC(=O)Nc1ccc(C)cc1-c1nnc(SCC(=O)Nc2cccc(Cl)c2Cl)[nH]c1=O | 0.8% | -4.0% |
| 50 | Cc1nc2cc(NC(=O)C3CCCCC3)ccc2o1 | 224.7%[activator] | 27.3% |

More results:
| # | molecule | StopGo FLuc | StopGo RLuc |
| --- | --- | --- | --- |
| 51 | CC(c1ccc(F)cc1)N(C)CCC(=O)N1CCCCC1 (stereo not given) | -1.7% | 4.9% |
| 52 | O=C(NCc1cccc(Cl)c1)C1CCCN(c2ncnc3nc[nH]c23)C1 (stereo not given) | -7.8% | -15.5% |
| 53 | O=C(NCc1ccccc1)C1CCCN(c2cnc3ccccc3n2)C1 (stereo not given) | 26.4% | 13.0% |
| 54 | O=C(Nc1cccc(C(=O)N2CCN(c3ccc(F)cc3)CC2)c1)c1nsc2ccccc12 | -7.4% | -5.7% |
| 55 | CCCNC(=O)C(C)NC(=O)CN(C)Cc1ccc(C(F)(F)F)cc1 (stereo not given) | 3.5% | -1.6%[1.06 µM] |
| 56 | O=S(=O)(c1ccc(Sc2nnnn2C2CC2)nc1)N1CCCCC1 | 14.3% | 10.7% |
| 57 | O=c1c2sccc2nc(SCc2nc(-c3cccc(C(F)(F)F)c3)no2)n1C1CC1 | 3.0% | 0.8% |
| 58 | CCCc1ccc(C(=O)Oc2ccc(-c3ccc(CCC)cn3)cc2)cc1 | 121.5%[activator] | -4.1% |
| 59 | COc1ccc(CNc2oc(-c3ccco3)nc2C#N)cc1 | 0.0% | 0.0% |
| 60 | COc1ccc(CNC(=O)C(CC(C)C)NS(=O)(=O)c2ccc3c(c2)CCN3C(C)=O)cc1 (stereo not given) | -19.8% | 12.0% |
| 61 | CCOc1ccc(-c2cc(C(=O)N3CCN(c4cc(Cl)ccc4C)CC3)c3ccccc3n2)cc1 | -21.3% | -6.4% |
| 62 | CCN(CC)C(=O)c1ccc(CSC(F)F)o1 | 36.0%[activator] | 1.4% |
| 63 | CCCCC(Sc1nnc(C)n1-c1cccc(C)c1)C(=O)Nc1cc(C)on1 (stereo not given) | 32.5%[activator] | 72.6%[activator] |
| 64 | Cc1ccc(C)c(S(=O)(=O)NCC2CN(Cc3ccccc3)CCO2)c1 (stereo not given) | -4.3% | 103.4%[activator] |
| 65 | CN(C)CCC(OC(=O)C1(c2ccccc2)CCCC1)c1ccccc1 (stereo not given) | -11.2% | 3.0% |
| 66 | O=C(Nc1ccc(Cl)cc1)c1ccc(-n2cnnc2)cc1 | 14.7% | -4.8% |
| 67 | COc1ccc(CCNC(=O)c2c(O)nc3ccccn3c2=O)cc1OC | 10.5% | -1.2% |
| 68 | CC(=O)Nc1cc(C(=O)COC(=O)c2cccc3ccccc23)ccc1O | 9.6% | -6.9%[1.06 µM] |
| 69 | CC(C)N(C(=O)COC(=O)c1ccc2ccccc2n1)C(C)C | -5.2% | -7.8% |
| 70 | COc1ccc(-c2cc(C(F)(F)F)n3ncc(-c4ccccc4)c3n2)cc1 | 12.1% | -1.0% |
| 71 | COc1ccc(Cl)cc1NC(=O)c1cc2nc(-c3ccc4c(c3)OCO4)cc(C(F)(F)F)n2n1 | -16.7% | -13.0% |
| 72 | CCN(CC)Cc1ccc(CNC(=O)c2nccnc2N)cc1 | 14.8% | 8.9% |
| 73 | CC1CCc2cc(F)ccc2N1C(=O)C1(C)CC1(Br)Br (stereo not given) | -49.5% | ? |
| 74 | CC(C)CC(=O)Nc1ccc2oc(-c3ccccc3)nc2c1 | 152.6%[activator] | 38.3%[activator] |
| 75 | Cc1cccc(OCC(=O)Nc2cccc(C(=O)OCc3cc(=O)n4c(C)csc4n3)c2)c1 | -18.6% | 43.0%[activator] |

Four neighbouring compounds from above, quoted:
| # | molecule | StopGo FLuc | StopGo RLuc |
| --- | --- | --- | --- |
| 46 | O=C(CC1Sc2ccc(C(F)(F)F)cc2NC1=O)Nc1ccc(OC(F)F)cc1 (stereo not given) | 20.9% | 6.5% |
| 47 | CCC1CCc2c(sc(NC(=O)c3c(-c4ccccc4)noc3C)c2C(=O)OC)C1 (stereo not given) | -2.6% | -18.1% |
| 48 | CCOC(=O)c1cc(NC(=O)c2ccc(C)cc2)c(=O)n2c1oc1ccc(Cl)cc12 | -13.4% | -12.4% |
| 49 | CCC(=O)Nc1ccc(C)cc1-c1nnc(SCC(=O)Nc2cccc(Cl)c2Cl)[nH]c1=O | 0.8% | -4.0% |

Structures above that contain an NH in an aromatic ring (three):
| # | molecule | StopGo FLuc | StopGo RLuc |
| --- | --- | --- | --- |
| 29 | Cc1ccc(-c2nc(CSc3nc(C)c(CCO)c(=O)[nH]3)c(C)o2)cc1 | 14.8% | -6.9% |
| 49 | CCC(=O)Nc1ccc(C)cc1-c1nnc(SCC(=O)Nc2cccc(Cl)c2Cl)[nH]c1=O | 0.8% | -4.0% |
| 52 | O=C(NCc1cccc(Cl)c1)C1CCCN(c2ncnc3nc[nH]c23)C1 (stereo not given) | -7.8% | -15.5% |

The main list resumes, repeating the 4 entries before the break.
| # | molecule | StopGo FLuc | StopGo RLuc |
| --- | --- | --- | --- |
| 72 | CCN(CC)Cc1ccc(CNC(=O)c2nccnc2N)cc1 | 14.8% | 8.9% |
| 73 | CC1CCc2cc(F)ccc2N1C(=O)C1(C)CC1(Br)Br (stereo not given) | -49.5% | ? |
| 74 | CC(C)CC(=O)Nc1ccc2oc(-c3ccccc3)nc2c1 | 152.6%[activator] | 38.3%[activator] |
| 75 | Cc1cccc(OCC(=O)Nc2cccc(C(=O)OCc3cc(=O)n4c(C)csc4n3)c2)c1 | -18.6% | 43.0%[activator] |
| 76 | Cc1ccc(-c2nn3c(=O)cc(CN4CCN(S(=O)(=O)c5ccc(Cl)cc5)CC4)nc3s2)cc1 | 1.1% | -3.3% |
| 77 | CS(=O)(=O)NCCCNC(=O)c1cnc2ccccc2n1 | 49.7%[activator] | -6.6% |
| 78 | Cc1oc(-c2cccs2)nc1C(=O)NC(C)CN1CCOCC1 (stereo not given) | -3.1% | -9.9% |
| 79 | O=C(Cc1cn2ccsc2n1)Nc1cccc(S(=O)(=O)N2CCCCCC2)c1 | 6.0% | 96.7%[activator] |
| 80 | CC(=O)Nc1cc(NC(C)=O)cc(C(=O)NCC2CCCCC2)c1 | 18.0% | -5.0%[1.06 µM] |
| 81 | Cc1ccc2nc(-c3ccc(NC(=O)C(F)(F)F)cc3)sc2c1 | 196.6%[activator] | -7.1% |
| 82 | O=C(CCn1c(=O)c2cccn2c2ccc(F)cc21)NCCc1ccccc1Cl | -20.6% | 46.1%[activator] |
| 83 | O=c1cc(COc2ccc(Cl)cc2Cl)nc2scc(-c3ccccc3)n12 | -9.3% | -8.5% |
| 84 | CCOc1cccc2cc(-c3nc(-c4ccccc4F)no3)c(=O)oc12 | 42.4%[activator] | -12.4% |
| 85 | Cc1cccc(NC(=O)c2nc3ccccc3nc2N2CCOCC2)c1C | 0.1% | 6.1% |
| 86 | COC(=O)COc1ccc2c(C)c(C)c(=O)oc2c1C | 15.9% | 5.0% |
| 87 | CCCCOc1ccc(/C=C(\C#N)c2nc(-c3ccc(Cl)cc3)cs2)cc1 | 0.7% | 12.1% |

Entries of single compounds, looked up by structure. Values in the order: StopGo FLuc, StopGo RLuc
Cc1ccc2nc(-c3ccc(NC(=O)C(F)(F)F)cc3)sc2c1 across the screens: 196.6%[activator], -7.1%
COC(=O)COc1ccc2c(C)c(C)c(=O)oc2c1C across the screens: 15.9%, 5.0%
CC(=O)Nc1cc(NC(C)=O)cc(C(=O)NCC2CCCCC2)c1 across the screens: 18.0%, -5.0%[1.06 µM]
